TRPML1 ag: qHTS for Agonists of the Human Mucolipin Transient Receptor Potential 1 (TRPML1). Mucolipin-1 (Homo sapiens), Q9GZU1. TRPML1-expressing cells, Ca2+ dye fluorescence, FDSS; host cell line not named in the record; reference of the full effect not given here. activation, % (no concentration beside the values). hit rate 0.12% among 410,000. AID 624414, 2012; in the data active = activation above about 50%; inconclusive = about 30% to 50%; inactive = below about 30%; also: 0% is about no effect; the text of the record puts the active cut at 80%
Target sequence (Q9GZU1 whole entry, looked up): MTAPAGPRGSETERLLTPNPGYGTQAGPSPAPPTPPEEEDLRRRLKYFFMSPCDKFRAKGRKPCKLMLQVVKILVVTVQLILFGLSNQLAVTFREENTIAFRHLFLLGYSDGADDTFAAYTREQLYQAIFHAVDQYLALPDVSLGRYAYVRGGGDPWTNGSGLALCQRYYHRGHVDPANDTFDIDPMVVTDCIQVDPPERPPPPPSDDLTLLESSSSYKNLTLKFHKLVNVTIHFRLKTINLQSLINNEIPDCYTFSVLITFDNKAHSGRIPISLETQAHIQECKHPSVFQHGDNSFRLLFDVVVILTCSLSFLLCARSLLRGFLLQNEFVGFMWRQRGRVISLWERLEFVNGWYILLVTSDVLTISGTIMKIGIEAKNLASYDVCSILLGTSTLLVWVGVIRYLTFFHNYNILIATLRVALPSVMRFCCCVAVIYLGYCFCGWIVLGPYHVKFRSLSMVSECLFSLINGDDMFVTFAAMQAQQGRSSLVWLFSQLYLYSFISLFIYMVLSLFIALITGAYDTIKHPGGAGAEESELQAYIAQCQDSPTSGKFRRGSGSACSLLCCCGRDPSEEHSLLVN
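Cells: TRPML1-DL, 1X Tet inducer, ~16 h at 37 degrees C/5% CO2. Dye: ABD Ca8 no-wash + quencher, 45-90 min RT. Read: 10 s baseline, compound add, 110 s agonist phase; 54-4 EC80 (4uM final), 110 s antagonist phase.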
Six1-Eya2 blk: qHTS Assay for Inhibitors of the Six1/Eya2 Interaction | AID 651725, 2012 | AlphaScreen GST-Six1/His-Eya2 binding, biochemical; active compounds read low; control for the full effect not named in the record | hit rate 0.56% among 360,000 | activity change, % (no concentration beside the values); in the data active = activity change below about -65%; inconclusive = about -30% to -65%; inactive = above about -30%; also: % is scaled to controls: 0 for no effect and ±100 for the full control effect
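Compounds are tested against tagged Six1 and Eya2 proteins bridged by glutathione donor and nickel acceptor beads; after a one-hour incubation at 37 °C without light, AlphaScreen emission is recorded.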
CtBP-E1A blk: qHTS Assay for Inhibitors of the CtBP/E1A Interaction. AlphaScreen GST-E1A/His-CtBP binding, 1536-well; active compounds read low; control for the full effect not named in the record. activity change, % (concentration not given with the values). hit rate 0.49% among 340,000; in the data active means activity change below about -65%; inconclusive means about -30% to -65%; inactive means above about -30%; also: % is scaled to controls: 0 for no effect and ±100 for the full control effect
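Steps: dispense buffer (Tris pH 8.0, NaCl 300 mM, TCEP 1 mM, BSA, Tween 20); add 5X protein mix (GST-E1A, His-CtBP, 125 nM each); pin 23 nL compound; 2 h at 37 °C, dark; add 5X beads (50 ug/mL); 1 h; read.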
PINK1 modulator: A Quantitative High throughput Screen to Identify Chemical Modulators of PINK1 Expression | hit rate 0.2% among 410,000 | PINK1 immunofluorescence, high-content cytometry, 24 h | Potency, µM (highest dose often 76.6 µM), without a hit: top-dose activation (PINK1 increase), most hits filed as activators | AID 624263, 2012; active = well fitted activation curve with a large enough effect; inconclusive = small, poorly fitted or top-dose-only effect; inactive = flat fitted curve, though single readings scatter; cell line not stated here;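 also: potency is read from the fitted curve at half-maximal effect; % of control where 0% means no effect; nearly all actives have a fitted effect of over 65% in size; a mitochondrial uncoupler was the plate control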
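Measures PINK1 amount and localization on or inside mitochondria by immunofluorescence. Stable cells get compounds at 5 concentrations for 24 hours before fixation and staining; CCCP controls included.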
D2 agonist: Beta-Arrestin HTS for Positive Allosteric Modulators of the Human D2 Dopamine Receptor: Agonists; D(2) dopamine receptor (Homo sapiens), P14416; DiscoveRx PathHunter D2 beta-arrestin, luminescence, 90 min; 100% = 57 uM dopamine signal; activation, % (test concentration not listed); hit rate 0.084% among 360,000; AID 624465, 2012; in the data active = activation above about 40%; inconclusive = about 15% to 40%; inactive = below about 15%; also: compound concentration not given in the record; the text of the record calls up to 30% inactive
Target sequence (P14416 whole entry, looked up): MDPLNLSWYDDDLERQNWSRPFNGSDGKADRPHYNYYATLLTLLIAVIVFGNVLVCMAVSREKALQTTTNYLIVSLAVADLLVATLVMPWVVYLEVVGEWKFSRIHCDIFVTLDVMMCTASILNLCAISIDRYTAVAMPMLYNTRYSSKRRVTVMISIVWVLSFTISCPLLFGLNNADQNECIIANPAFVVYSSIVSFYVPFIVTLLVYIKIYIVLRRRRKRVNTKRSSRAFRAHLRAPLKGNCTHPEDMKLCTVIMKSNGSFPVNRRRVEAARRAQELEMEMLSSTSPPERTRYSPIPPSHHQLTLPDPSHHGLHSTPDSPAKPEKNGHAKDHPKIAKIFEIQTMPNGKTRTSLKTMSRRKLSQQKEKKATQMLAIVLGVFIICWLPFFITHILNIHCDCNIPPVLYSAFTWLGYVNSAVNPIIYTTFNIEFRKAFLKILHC
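DiscoveRx PathHunter D2 beta-arrestin cells (2,100/well) attached overnight, then compound-stimulated 90 min at 37 C in HBSS/10 mM HEPES/0.1% Tween-20 buffer; beta-galactosidase complementation read by luminescence after 1 h at ambient temperature. Dopamine 57 uM final (EC100) as control.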
D2 potentiator: Beta-Arrestin HTS for Positive Allosteric Modulators of the Human D2 Dopamine Receptor: Potentiators; D(2) dopamine receptor (Homo sapiens), P14416; DiscoveRx D2 beta-arrestin cells, luminescence, 90 min; 100% = 57 uM dopamine signal; potentiation, % (no concentration beside the values); hit rate 0.23% among 360,000; AID 624464, 2012; active = potentiation of 50% or more; inconclusive = 30% to 50%; inactive = 30% or less;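 also: compound concentration not given in the record; tested on top of an EC20 dose of dopamine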
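PathHunter beta-arrestin assay in DiscoveRx D2 cells. Compounds were added with an EC20 of dopamine (50 nM final) for 90 min at 37 deg C. Luminescence was read 1 h after detection reagent, with 57 uM dopamine as the EC100 control.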
* = called active by the depositor; ? = inconclusive; · = no result given; [ ] = dose if it differs, or a comment. No enrichment for hits; overall some 1.3% were active at least once.

SMILES	TRPML1 ag	Six1-Eya2 blk	CtBP-E1A blk	PINK1 modulator	D2 agonist	D2 potentiator
Cc1csc(NC(=O)/C=C/c2ccc(C)o2)n1	-0.4	1	6	6.1%	0.4	8
O=C1CCCC/C1=C\Nc1ccc(O)cc1	1.5	-2	-4	-4.1%[38.3 µM]	8.6	10
COc1ccc(N2CCN(CC(=O)c3ccc(Cl)cc3)CC2)cc1	-0.3	-2	-3	0.9%	-2.3	-11
COc1cccc(CNC(=O)C2CCN(S(=O)(=O)c3ccccc3)CC2)c1	-1.3	-2	5	-2.3%	-1.2	-8
CCCOc1ccc(S(=O)(=O)NCc2ccc(OC)cc2)cc1	2.8	24	7	3.4%	-4.2	-2
COc1ccccc1NC(=O)CSc1nnc(Cn2cnc3ccccc32)n1C	-0.5	5	3	-0.4%	4.5	-4
O=C1CC(C(F)(F)C(F)(F)C(F)(F)C(F)F)=Nc2ccccc2N1	0.7	5	1	-2.9%[38.3 µM]	2.0	-8
COc1cccc(-c2cc(C(=O)NCc3ccco3)c3ccccc3n2)c1	-0.2	-15	-1	0.3%	-3.3	-2
COc1ccc(NS(=O)(=O)c2cc(Br)cc3c2N(C(C)=O)CC3)cc1	-1.2	0	-4	2.6%	-18	-13
C=CCC[C@H](CCCCC)OC(=O)/C=C/[C@@H](O)[C@H](O)C[C@H](O)CC=C	-0.4	1	5	2.3%	·	·
CCOc1cc(C(=O)N/N=C(\C)Cc2ccc(OC)cc2)cc(OCC)c1OCC	0.7	1	1	5.4%	-2.4	-12
COc1ccc(NC(=S)N2CCC(C(=O)c3ccc(C)cc3)CC2)c(OC)c1	0.3	-4	-15	0.2%	-2.1	-17
CC12CC(c3ccccc3O1)C(C(=O)NCc1ccccc1)C(=O)N2 (configuration not stated)	0.2	3	2	3.9%[38.3 µM]	0.3	-9
O=C(OCc1ccccc1C(F)(F)F)c1ccc(Br)c(S(=O)(=O)N2CCOCC2)c1	3.3	4	1	-0.4%	-1.9	-5
Cc1ccc(S(=O)(=O)N2CCN(c3ccc([N+](=O)[O-])c(NCCN4CCOCC4)c3)CC2)cc1	0.2	-30	-24	9.6%	-2.6	-14
O=S(=O)(Nn1cnnc1)c1ccc(F)cc1	0.4	8	-4	-4.0%	-2.0	-1
O=c1[nH]c(C2CC2)nc2sc3c(c12)CCCC3	-0.5	0	1	-0.2%	-1.7	-5
c1ccc(CSc2nnc(-c3cccs3)n2Cc2ccco2)cc1	2.3	-3	-6	-0.2%	-3.8	-14
CCc1ccc(Nc2nc(N)nc(CSc3nnnn3-c3ccccc3)n2)cc1	-0.9	7	11	15%	6.1	1
Cc1nn(-c2ccccc2)c2c1C(c1c(C)[nH]c(C#N)c1C)C(C#N)=C(N)O2 (configuration not stated)	0.0	-4	-3	-0.8%	-0.5	-5

By substructure, the compounds so far containing a thiophene ring, fused or not.
SMILES	TRPML1 ag	Six1-Eya2 blk	CtBP-E1A blk	PINK1 modulator	D2 agonist	D2 potentiator
O=c1[nH]c(C2CC2)nc2sc3c(c12)CCCC3	-0.5	0	1	-0.2%	-1.7	-5
c1ccc(CSc2nnc(-c3cccs3)n2Cc2ccco2)cc1	2.3	-3	-6	-0.2%	-3.8	-14

Compound profiles, as listed above. Order of values: TRPML1 ag, Six1-Eya2 blk, CtBP-E1A blk, PINK1 modulator, D2 agonist, D2 potentiator
Listed for O=S(=O)(Nn1cnnc1)c1ccc(F)cc1 : 0.4, 8, -4, -4.0%, -2.0, -1
Listed for Cc1nn(-c2ccccc2)c2c1C(c1c(C)[nH]c(C#N)c1C)C(C#N)=C(N)O2 (configuration not stated) : 0.0, -4, -3, -0.8%, -0.5, -5

Further results follow:
SMILES	TRPML1 ag	Six1-Eya2 blk	CtBP-E1A blk	PINK1 modulator	D2 agonist	D2 potentiator
CC(=O)c1ccc(-c2ccc(C(=O)N(C)c3c(N)n(Cc4ccccc4)c(=O)[nH]c3=O)o2)cc1	0.1	9	5	-0.5%	-1.4	-6
O=C(CS(=O)(=O)c1ccccc1)NCc1ccco1	-0.8	0	0	-0.4%	-4.2	-9
COc1ccccc1/C=C/C(=O)NCc1cccnc1	1.1	1	-13	1.3%	-2.0	-4
C(=N\n1cnnc1)/c1cccnc1	-0.6	4	-3	1.2%	-2.8	0
Cc1cc(C)c2cc(CN(Cc3cccs3)Cc3nnnn3CC3CCCO3)c(=O)[nH]c2c1 (configuration not stated)	-0.5	-7	4	·	-2.3	-22
CC(=O)Nc1ccc(C(=O)COC(=O)CCS(=O)(=O)c2ccccc2)cc1	-0.1	14	-12	0.0%	-4.9	-9
CN(CC(=O)Nc1ccc(F)cc1)c1ccc(S(=O)(=O)N2CCCCC2)cc1[N+](=O)[O-]	0.9	-27	-16	2.9%	1.0	-3
CN(CCOC(=O)c1ccc2c(c1)OCCO2)C(C)(C)C	-0.3	8	4	-0.5%	-1.9	-8
CC(C)c1ccc(N(CC(=O)N2CCOCC2)S(C)(=O)=O)cc1	0.3	-6	-6	1.0%	0.5	-6
CCCCn1nnnc1SCC(=O)NNC(=O)C1CCCCC1	2.3	5	0	-1.5%[38.3 µM]	0.4	-7
COCCn1c(N)c(C(=O)c2cccc(S(=O)(=O)N3CCCCCC3)c2)c(=O)[nH]c1=O	1.3	17	0	14%	1.8	3
COc1ccc(CCNC(=S)Nc2cccc3ccccc23)cc1	-0.5	-14	-18	-2.0%	-2.4	-9
Cn1c(=O)c2cc(NC(=S)NCc3ccccc3F)ccc2n1Cc1ccc(F)cc1	-1.0	-10	-8	1.2%	3.3	-2
c1ccc(CCOn2ccnc2)cc1	0.7	-3	0	-0.5%	0.7	-4
CN1CCN(C(=O)C23CCC(C)(C(=O)C2Br)C3(C)C)CC1 (configuration not stated)	1.0	8	-20	-1.2%	-6.2	1
COc1ccc(/C=N/OCC(=O)N2CC3(C)CC2CC(C)(C)C3)cc1OC (configuration not stated)	0.2	-4	10	·	0.0	9
CCOC(=O)C1(Cc2cccc(OC)c2)CCN(Cc2cnc(N)nc2)CC1	-0.9	8	2	0.2%	-5.0	-3
COC(=O)c1ccccc1Oc1nc(Cl)cc(OC)n1	-0.1	23	3	-1.0%	-5.2	-7
O=C(c1ccc(F)cc1)N1CCN(C(=O)c2ccc([N+](=O)[O-])cc2)CC1	1.3	10	6	0.5%	2.8	-2
CCO/C=C1/C(=O)N(c2ccccc2OC)C(=O)c2ccccc21	-0.4	9	10	0.1%	-2.0	-5
CC(=O)Nc1ccc(C(=O)OCC(=O)N(Cc2ccccc2)C(C)(C)C)cc1	-0.5	-1	1	-0.9%	-2.0	-2
O=C(NNC(=S)Nc1ccc(Br)cc1)c1ccc(N2CCOCC2)c([N+](=O)[O-])c1	0.2	-26	-1	24%	-8.2	-37
CCOC(=O)c1ccc(NC(=O)NCCN2CCCCC2)cc1	-0.3	2	1	2.7%[38.3 µM]	0.8	-21
Cn1c2ccccc2c(=O)c2cc(C#Cc3cccc(N)c3)ccc21	-0.5	0	-3	0.1%	2.0	4
O=C(NCc1ccc(F)cc1)C1C2C=CC3(CN(Cc4cccnc4)C(=O)C13)O2 (configuration not stated)	0.0	25	40	7.3%[38.3 µM]	-4.1	-1
C#CCOCC1CNC(=S)O1 (configuration not stated)	-0.1	5	2	1.2%	-3.3	-5
CC12CCC3(CO)COC(c4ccccc4O1)C2C3 (configuration not stated)	-0.9	27	42	-4.0%	-3.5	-3
Cn1cc(CNC(=O)c2ccc(OC3CCN(Cc4ccccn4)CC3)cc2)cn1	0.3	12	1	0.1%	-6.3	-28
COC(=O)C1CCN(C(=O)CN2C(=O)NC(CC(C)C)C2=O)CC1 (configuration not stated)	-0.5	30	·	3.3%	-3.0	-4
Cc1ccc(S(=O)(=O)N2CCN(C(=O)COC(=O)/C=C/c3ccccc3)CC2)c(C)c1	0.3	4	-29	1.0%	-0.2	-6
CSc1nc(C)cc(C)c1C(N)=O	-0.1	4	7	-3.0%	-2.4	-4
Cc1cc(C)cc(C(=O)OCC(=O)NC2CCCC2)c1	·	3	3	2.5%	-2.6	4
Nc1c2c(nc3ccn(Cc4ccccc4)c(=O)c13)CCC2	-0.8	0	-3	0.6%	0.8	5
CCN(CC)S(=O)(=O)c1ccc(N)cc1	-0.5	13	-2	0.9%	-4.5	-7
CCCCn1c(N)c(N(CC(C)C)C(=O)C2CCN(S(=O)(=O)c3ccc(C)cc3)CC2)c(=O)[nH]c1=O	-0.2	6	0	1.2%	-5.1	9
CCCCc1c(O)nc(SCC(=O)N2CCOCC2)n(-c2ccc(OC)cc2)c1=O	0.0	-3	2	-0.3%	-3.3	-5
Cc1cc(/C(N)=N/OC(=O)Nc2ccc(Cl)cc2)no1	0.6	4	0	0.6%	2.1	-12
CN1CCc2c(sc(NC(=O)c3ccc([N+](=O)[O-])o3)c2C(N)=O)C1	-0.2	?	-24	-1.7%	0.5	-12
Cc1ccc(S(=O)(=O)NCCn2nc(C)cc2C)cc1	-0.1	6	-7	1.8%	-0.3	-3
CCc1nc2ccc(C(=O)Nc3ccc(OC)c(OC)c3)cn2c1N(C)Cc1cccs1	-0.9	-12	-10	0.2%	8.4	3
CC(=O)c1cnc(SCC(=O)O)nc1C	-0.4	10	6	-1.1%	-2.5	-11
O=C(OCC(=O)N1CCN(C(=O)COC(=O)c2ccc(O)cc2O)CC1)c1ccc(O)cc1O	0.0	-21	-9	?	2.7	5
CC(=O)NC(=S)Nc1ccc(NC(=O)COc2ccc(Cl)cc2)cc1	0.1	0	3	-0.5%	0.4	3
COc1cccc(C(=O)NCC(=O)N2CCC3(CC2)NCCc2[nH]cnc23)c1OC	0.1	0	-1	-1.3%	-1.2	-3
O=C1/C(=C\c2ccco2)SC(=S)N1c1ccccc1	-0.7	-16	-13	1.7%	2.7	-6
CCN(CC)S(=O)(=O)c1ccc2c(c1)N(CC(=O)NCC1CCCO1)C(=O)CO2 (configuration not stated)	-0.5	0	4	-0.7%	0.1	-7
COCCN(C(=O)c1cc2c(s1)CCC2)c1c(N)n(CC(C)C)c(=O)[nH]c1=O	0.3	-19	6	-0.3%	-0.7	-10
c1ccc(-c2nc(-c3ccccn3)nc(-c3ccccn3)n2)nc1	0.2	?	?	1.2%	0.7	3
Cc1c(Cl)cccc1NC(=O)c1cc(S(=O)(=O)N2CCOCC2)cn1C	-0.3	-8	-19	-0.9%	3.1	-3
C=CCn1c(SCC(=O)Nc2ccc3c(c2)OCO3)nnc1-c1ccccc1OC	0.5	7	24	2.2%	-2.4	0
CCCNC(=O)C1(C)CCN1C(=O)C1(c2ccccc2)CC1 (configuration not stated)	-0.1	2	1	-0.9%	-1.5	-3
CC(=O)Nc1nc(C)c(C(C)(C)C)s1	1.0	4	0	2.8%	1.5	2
C[C@H](NC(=O)c1nc[nH]c1C(=O)N1CCNCC1)C(=O)OC(C)(C)C	0.4	1	3	-0.5%	-7.4	-7

Screens from PubChem.
